Compound activity deposited in PubChem BioAssay by National Center for Advancing Translational Sciences (NCATS).
PK Bst – alters activity of Bacillus stearothermophilus pyruvate kinase; partly purified Bacillus stearothermophilus pyruvate kinase, luminescence ATP production; ribose 5-phosphate activator present at AC10; Potency, µM; 51,000 tested, 1.2% active; AID 361; in the data active means potency below about 11 µM; inconclusive means mostly about 12 µM to 25 µM; inactive means weaker than that;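 the screen sought inhibitors and activators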;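 further: potency means the concentration at half of the fitted maximal effect; scaled between full activation by ribose 5 phosphate and full inhibition by luteolin; about four in five hits inhibit and the cells do not say which; series up to 57 µM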
YjeE inh – YjeE (TsaE) inhibition, E. coli. P0AF67. purified YjeE, fluorescence polarisation of a bound ADP probe. Potency, µM. 71,000 tested, 0.05% active; active = well fitted falling curve; inconclusive = weaker or top-dose-only fall, or a rising curve; inactive = flat or poorly fitted curve;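 further: top concentration of the series not given in the record; excess ADP was the control for the full effect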
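Fluorescence polarization of a BODIPY Texas Red–ADP probe (2 uM) bound to purified YjeE (10 uM) was read after 15 min room-temperature incubation with compounds. Loss of polarization marks inhibitors; ADP serves as titrated control.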
Active calls of the source: *; i = inactive; ? = inconclusive; nt = not tested or not shown. The list is partial. The share of hits here may be higher or lower than overall.

PK Bst	YjeE inh	SMILES
>57	i	CC1(C)Cc2noc(N)c2C(C)(C)N1O
3.8*	i	COc1ccc(-c2cc3nc4n(c(=O)c3s2)CCC4)cc1
nt	i	O=c1c2ccccc2c2ccccc2c(=O)n1-c1cc2c3ccccc3ccc2c2ccccc12
>57	i	CC(C)CCn1c(=O)c2ccccc2n2c(COC(=O)c3ccc(S(=O)(=O)N(C)C)cc3)nnc12
>57	i	O=C(CCS(=O)(=O)c1cccs1)NC1CCCCCC1
6.4*	i	Clc1ccc(-c2nnc(NC3=NCCCCC3)o2)cc1
>57	i	O=C(CCC(=O)c1cccs1)Nc1nnc(C2CC2)s1
nt	i	CC(=O)NC1CSCC1OC(C)=O (stereo not drawn)
nt	i	C[C@@H]1O[C@@H](OC[C@@H]2O[C@@H](Oc3c(-c4ccc(O)c(O)c4)oc4cc(O)cc(O)c4c3=O)[C@H](O)[C@H](O)[C@@H]2O)[C@H](O)[C@H](O)[C@@H]1O
nt	i	COc1ccc(C(=O)N2CCC3(CCN(C(=O)Nc4cccc(F)c4)CC3)CC2)cc1
nt	i	COc1ccc(CNC(=O)CN(c2cc(C)cc(C)c2)S(=O)(=O)c2c(C)noc2C)cc1
>57	i	CC(C)(C)c1ccc(Cn2nnc3c(=O)[nH]c(C4CCCN(C(=O)Cc5cccs5)C4)nc32)cc1 (stereo not drawn)
nt	i	CCCCN=CC1=C(O)C(C(=O)OC)C(C)(C)CC1=O (stereo not drawn)
nt	i	CC1=C(C(=O)Nc2ccc(F)cc2)C(c2cccc(C)c2)n2nc(CCCO)nc2N1 (stereo not drawn)
>57	i	CC(C(=O)NC1CCCC1)N(Cc1ccco1)C(=O)c1snc(C(=O)NC2CCCC2)c1N (stereo not drawn)
>57	i	CCOc1cc(N2CCOCC2)c(OCC)cc1NC(=O)Cc1ccc(OC)c(OC)c1
nt	i	O=C(Nc1nnc(-c2ccccc2)o1)Nc1ccccc1Cl
nt	i	CCc1cccc2c3c([nH]c12)[C@](CC)(CC(=O)O)OCC3
>57	i	CCOC(=O)N1CCN(C(=O)CCc2c(C)nc3c(c(C)nn3-c3ccc(C)c(C)c3)c2C)CC1
>26	nt	COc1ccc(OC)c2c1CCC2=O
nt	i	N#Cc1c(-c2ccccc2)no[n+]1[O-]
nt	i	Cc1cc(NC(=O)C2CCCN(S(=O)(=O)c3c(C)noc3C)C2)no1 (stereo not drawn)
nt	i	COc1ccc(-c2nc3cncnc3n(-c3ccccc3)c2=O)cc1
>57	i	O=c1c2ccccc2[nH]c(=S)n1CCN1CCN(Cc2ccccc2)CC1
nt	i	CCn1c(=O)cc(OCC(=O)Nc2ccccc2N2CCN(C)CC2)c2ccccc21
nt	i	c1cc(CSc2ncnc3nc[nH]c23)ccn1
>57	i	COc1cc(C(=O)NCC(c2ccco2)N2CCCC2)ccc1OCc1c(C)noc1C (stereo not drawn)
>57	i	COc1ccc(C(=O)C(CN2CCOCC2)c2ccccc2)cc1F (stereo not drawn)
>26	nt	Cc1cc(C)n(CC2CC(=O)N(c3cc(Cl)cc(Cl)c3)C2=O)n1 (stereo not drawn)
>57	i	O=C(C1=C(O)C(=O)N(CC2CCCO2)C1c1cccnc1)c1ccco1 (stereo not drawn)

An excerpt of these results, with values under each structure:
Each structure is followed by: PK Bst, YjeE inh
N#Cc1c(-c2ccccc2)no[n+]1[O-]
  nt, i
c1cc(CSc2ncnc3nc[nH]c23)ccn1
  nt, i
O=c1c2ccccc2c2ccccc2c(=O)n1-c1cc2c3ccccc3ccc2c2ccccc12
  nt, i
CC(=O)NC1CSCC1OC(C)=O (stereo not drawn)
  nt, i
COc1ccc(OC)c2c1CCC2=O
  >26, nt
O=C(CCC(=O)c1cccs1)Nc1nnc(C2CC2)s1
  >57, i

The main list resumes; the two compounds before the break are reprinted first.
PK Bst	YjeE inh	SMILES
>26	nt	Cc1cc(C)n(CC2CC(=O)N(c3cc(Cl)cc(Cl)c3)C2=O)n1 (stereo not drawn)
>57	i	O=C(C1=C(O)C(=O)N(CC2CCCO2)C1c1cccnc1)c1ccco1 (stereo not drawn)
>57	i	CN(C)S(=O)(=O)c1cccc(C(=O)OCC(=O)Nc2ccccc2OC(F)F)c1
nt	i	COc1ccccc1CCn1c(=O)c(-c2ccccc2)nc2cncnc21
>57	i	CC1(N2CCCCC2)CC2(O)C(=[N+]1[O-])CCC/C2=N\O (stereo not drawn)
nt	i	Cc1noc(C)c1-c1cncnc1NCCN1CCOCC1
nt	i	Cc1onc(-c2ccccc2)c1C(=O)Nc1ccc(OC(C)C)cc1
>57	i	CC1CCCC(C)N1Cc1cn2ccccc2n1 (stereo not drawn)
>57	i	Cc1ccc2cc(C#N)c(NCc3ccco3)nc2c1
>57	i	Cc1ccc(-n2c(SCC(=O)Nc3nccs3)nc3c(c2=O)SCC3)cc1
nt	i	CCN(CC)c1ccc(C2C(C(=O)Nc3ccccn3)=C(C)NC3=C2C(=O)CC(C)(C)C3)cc1 (stereo not drawn)
nt	i	CCC/C=C(\CCC)C(NS(=O)(=O)c1cccc2cccnc12)c1ccc(C(=O)OC)cc1 (stereo not drawn)
>57	i	OC1(c2cccc(C(F)(F)F)c2)CCN(c2ccc(-c3ccccc3)nn2)CC1
>57	i	Cc1cccc(Nc2ccccc2C(=O)OCC(=O)N2CCOCC2)c1C
>57	i	CCOC(=O)c1sc(=NC(=O)c2ccc(OC)c(OC)c2)n(C)c1C
>57	i	COC(=O)c1ccc2c(c1)nc(C)n2CCO
nt	i	CN(C)c1ccc(O)c2c1C[C@H]1C[C@H]3[C@@H](N(C)C)C(=O)C(C(N)=O)=C(O)[C@]3(O)C(=O)C1=C2O
>57	i	N#Cc1cccc(-c2cn(S(=O)(=O)c3ccc(Cl)cc3)nc2N)c1
>57	i	C=C(C)c1cccc(C(C)(C)NC(=O)N2CC(C)OC(C)C2)c1 (stereo not drawn)
>57	i	O=C(Nc1ccc(N2CCN(C(=O)c3ccco3)CC2)c(Cl)c1)c1c(F)c(F)c(F)c(F)c1F
>57	i	CC(=O)N1CCc2cc(Br)cc(S(=O)(=O)NCC3CCCO3)c21 (stereo not drawn)
>57	i	COc1c(C)cc(Br)cc1C(=O)Nc1ccc(N2CCN(S(C)(=O)=O)CC2)cc1
>57	i	COC(=O)Cn1c(C)c(C(C)=O)c(C(C)=O)c1C
>57	i	CCCOc1ccc(C(=O)Nc2ccc(N3CCN(C(C)=O)CC3)cc2)cc1
>57	i	CNC(=O)N(c1ccccc1)c1ccccc1
>57	i	O=C(NCc1ccco1)c1nc2ccccc2s1
nt	i	CCn1nnc(NC(=O)c2cccc(-c3cc4ccccc4oc3=O)c2)n1
nt	i	CC1(C)CC(=O)C(C=NCCc2ccc(O)cc2)=C(O)C1
nt	i	N#CC1=C(SCc2ccccc2)NC(=O)CC1c1cccc(O)c1 (stereo not drawn)
>57	i	COC(=O)c1cc(OC)c(OC)cc1NC(=O)c1cc(C)on1
>57	i	COc1cc(NC(=O)Cn2nnc(-c3ccncc3)n2)cc(OC)c1
nt	i	CN(C)c1nc2ccc(OCCN3CCCCC3)cc2s1

Profiles, looked up by structure.
`Cc1ccc2cc(C#N)c(NCc3ccco3)nc2c1` in the list: PK Bst: >57; YjeE inh: i
`CC1CCCC(C)N1Cc1cn2ccccc2n1` (stereo not drawn) in the list: PK Bst: >57; YjeE inh: i

Back to the main list; the three compounds before the break are reprinted first.
PK Bst	YjeE inh	SMILES
>57	i	COC(=O)c1cc(OC)c(OC)cc1NC(=O)c1cc(C)on1
>57	i	COc1cc(NC(=O)Cn2nnc(-c3ccncc3)n2)cc(OC)c1
nt	i	CN(C)c1nc2ccc(OCCN3CCCCC3)cc2s1
nt	i	NC(=O)c1csc(-c2ccc(CO)o2)n1
i	i	COC(=O)c1cccc(C(=O)Nc2ccc(C)cc2Br)n1
>57	i	CN1CCN(CCCNC(=O)Nc2cccc3ccccc23)CC1
nt	i	O=c1cc(C(F)F)oc2c1ccc1ccccc12
>57	i	C(=N\c1nc2ccccc2n1CCN1CCCCC1)/c1cccs1
>57	i	CCOC(=O)c1[nH]c(C)c(C(=O)N2CCc3ccccc32)c1C
i	nt	CN(C)c1ccc(C=Nc2cnn(C)c2C(N)=O)cc1
nt	i	Cc1ccc(C)c(N2CCN(C(=O)c3cc4ccccn4n3)CC2)c1
>57	i	CCc1[nH]nc2c1C(c1cccnc1)C(C#N)=C(N)O2 (stereo not drawn)
>57	i	CC(=O)c1c(N)n(C)c(=O)n(C)c1=O
nt	i	Cc1ccc(S(=O)(=O)Cc2ccc(C(=O)N3CCN(Cc4ccccc4)CC3)o2)cc1
>57	i	Cc1occc1-c1nnc(SCC(=O)N2CCOCC2)n1Cc1ccco1
>57	i	COc1ccccc1OCc1nc(Cc2ccc(Cl)cc2)no1
>57	i	COc1ccc(NS(=O)(=O)c2cccc(C(=O)O)c2)cc1
>57	i	CCOc1ccc(NC(=O)CSc2n[nH]c(=O)n2-c2ccccc2)cc1
>57	i	COc1ccc(NC(C)=O)cc1NC(=O)CN1CCN(CC(=O)Nc2ccc(Cl)cc2)CC1
>57	i	CCOC(=O)c1cc(CC)sc1NC(=O)COC
>57	i	CCOC(=O)N1CCN(C(=O)C2CCN(S(=O)(=O)N(CC)CC)CC2)CC1
nt	i	CCOC(=O)N1CCC(c2cc(=O)n3[nH]cc(C(=O)OC)c3n2)CC1
>57	i	COC(=O)c1nnn(CC(=O)Nc2cccc(OC)c2)c1C(=O)OC
nt	i	COc1ccccc1S(=O)(=O)Cc1ccc(C(=O)NCc2ccc3c(c2)OCO3)o1
>57	i	O=C(O)c1[nH]c2ccc(Cl)cc2c1CC(=O)N1CCN(C(=O)c2ccco2)CC1
>57	i	CC1CCN(CCCNC(=O)C2CCC(=O)N2C2CCCC2)CC1 (stereo not drawn)
>57	i	O=C(Nc1ccc(OC(F)F)c(Cl)c1)Nc1ccc2c(c1)OCO2
>57	i	CC1(C)CC(=O)C2=C(C1)Nc1nc(SCCN3CCOCC3)[nH]c(=O)c1C2c1cccs1 (stereo not drawn)
>57	i	Cc1cc2oc(=O)cc(CN3CCCCC3C)c2c(C)c1Cl (stereo not drawn)
nt	i	COc1ccc(S(=O)(=O)n2cnc3cc(C)c(C)cc32)cc1C
nt	i	CC(C)c1ccc(C2CC(=O)N3CN(C)CSC3=C2C#N)cc1 (stereo not drawn)
>57	i	CC(=O)NC(Cc1ccccc1C)C(=O)NC1CCN(c2c3c(nc4ncnn24)CCC3)CC1 (stereo not drawn)
>57	i	Cc1ccc2nc3c(cc(C#N)c(=O)n3CC3CCCO3)c(=O)n2c1 (stereo not drawn)
>57	i	COc1ccccc1OCc1nnc(SCC(=O)Nc2ccc(C)cc2)n1C
>57	i	O=C(CSc1ncnc2ccccc12)N1CCN(c2ccccc2)CC1
nt	i	COc1ccc(NC(=O)c2cc3cc(OC)ccc3oc2=N)cc1
>57	i	CCCCN(Cc1cc2cc(OC)ccc2[nH]c1=O)C(=O)COc1ccccc1
>57	i	O=C(Nc1cccc(S(=O)(=O)C(F)F)c1)c1ccc(Cl)c(S(=O)(=O)N2CCOCC2)c1
>57	i	CCc1ccc(-c2nc(CN3CCC(C(=O)NCc4ccco4)CC3)c(C)o2)cc1
>57	i	CCn1c2ccccc2c2cc(NC(=O)CSc3nnc(-c4ccccc4OC)n3N)ccc21
>26	nt	Cc1nc(NS(=O)(=O)c2ccccc2)sc1NC(=O)OC(C)C
nt	i	Cc1cc2nc3[nH]c4c(Cl)cc(Cl)cc4c3nc2cc1C
>57	i	c1ccc(Cc2nn3c(Cn4nnc5ccccc54)nnc3s2)cc1
?	i	O=C(OCC(=O)N1CCN(C(=O)c2ccco2)CC1)c1cc(-c2ccccc2)nc2ccccc12
>57	i	Cc1ccnc(N2CCC(C(=O)Nc3cccc(C(F)(F)F)c3)CC2)n1
>57	i	CCN1CCCC1CNC(=O)c1cc2c(-c3cccc(OC)c3)nn(C)c2s1 (stereo not drawn)
nt	i	CC1(C)Cc2ccccc2-c2nnnn21
nt	i	O=C(NO)c1ccccc1
>57	i	Cc1oc2ccccc2c1-c1cn2c(n1)SCC2
?	i	COc1ccccc1C(OC(=O)c1cccs1)C(=O)NCc1ccco1 (stereo not drawn)
nt	i	CCn1c(C(=O)N2CCC(C(=O)N3CCN(c4ccccn4)CC3)CC2)cc2sccc21
>57	i	CC(C)Cn1c(SCC(=O)N2CCN(S(=O)(=O)c3ccccc3)CC2)nc2ccccc21
>57	i	CCOC(=O)CN1CC23C=CC(O2)C(C(=O)NC2CCCCC2)C3C1=O (stereo not drawn)
?	i	COC(=O)c1cc2ccsc2n1CC(=O)N(C)c1ccccc1
nt	i	CCCCC(=O)OCCNC(=O)c1cc2ccccc2oc1=O
>57	i	O=C(CCC1CCCCC1)Nc1ncn[nH]1
nt	i	COc1ccccc1-c1cc(Nc2ccn[nH]2)ncn1
>57	i	CCOC(=O)c1c(N)c(C#N)c2n1CCCCC2
nt	i	CCOc1ccc2nc(NC(=O)C(CC)Sc3nc(C)cc(=O)[nH]3)sc2c1 (stereo not drawn)
>57	i	CCOC(=O)c1c(-c2ccncc2)csc1N
>57	i	OC12CCCCC1C(c1ccc3c(c1)OCO3)N(Cc1ccc(F)cc1)CC2 (stereo not drawn)
>26	nt	CN1CC2(C)CN(C(c3ccccc3)c3ccccc3)CC(C)(C1)C2O (stereo not drawn)
>11	nt	Clc1nc(-c2n[nH]nc2Cl)n[nH]1
>57	i	COc1ccc(CN2CC(C(=O)NCc3cccc(OC)c3)CC2=O)cc1 (stereo not drawn)
>57	i	COc1ccc(CCNS(=O)(=O)c2cccc(C(=O)O)c2)cc1OC
